# High-throughput results: PubChem, Johns Hopkins Ion Channel Center
# KCNQ2 pot: potentiators of rat KCNQ2 potassium channel. AID 2239. CHO-K1 KCNQ2, FluxOR thallium flux fluorescence; hits give high values. 310,000 tested, 0.54% active. B-score at 10 µM;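 active = fluorescence ratio B-score at least 3 SD of library B-scores, with initial fluorescence B-score within 3 SD, cut at about 5.3 in these data; same plate scores as AID 2156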;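 also: B-score of peak minus minimum over baseline fluorescence ratio after K+ and Tl+ stimulus; positive B-score means potentiation of KCNQ2 with more thallium influx and brighter signal; only the inactives scoring about 0 or higher are listed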
# Target sequence (O88943 whole entry, looked up): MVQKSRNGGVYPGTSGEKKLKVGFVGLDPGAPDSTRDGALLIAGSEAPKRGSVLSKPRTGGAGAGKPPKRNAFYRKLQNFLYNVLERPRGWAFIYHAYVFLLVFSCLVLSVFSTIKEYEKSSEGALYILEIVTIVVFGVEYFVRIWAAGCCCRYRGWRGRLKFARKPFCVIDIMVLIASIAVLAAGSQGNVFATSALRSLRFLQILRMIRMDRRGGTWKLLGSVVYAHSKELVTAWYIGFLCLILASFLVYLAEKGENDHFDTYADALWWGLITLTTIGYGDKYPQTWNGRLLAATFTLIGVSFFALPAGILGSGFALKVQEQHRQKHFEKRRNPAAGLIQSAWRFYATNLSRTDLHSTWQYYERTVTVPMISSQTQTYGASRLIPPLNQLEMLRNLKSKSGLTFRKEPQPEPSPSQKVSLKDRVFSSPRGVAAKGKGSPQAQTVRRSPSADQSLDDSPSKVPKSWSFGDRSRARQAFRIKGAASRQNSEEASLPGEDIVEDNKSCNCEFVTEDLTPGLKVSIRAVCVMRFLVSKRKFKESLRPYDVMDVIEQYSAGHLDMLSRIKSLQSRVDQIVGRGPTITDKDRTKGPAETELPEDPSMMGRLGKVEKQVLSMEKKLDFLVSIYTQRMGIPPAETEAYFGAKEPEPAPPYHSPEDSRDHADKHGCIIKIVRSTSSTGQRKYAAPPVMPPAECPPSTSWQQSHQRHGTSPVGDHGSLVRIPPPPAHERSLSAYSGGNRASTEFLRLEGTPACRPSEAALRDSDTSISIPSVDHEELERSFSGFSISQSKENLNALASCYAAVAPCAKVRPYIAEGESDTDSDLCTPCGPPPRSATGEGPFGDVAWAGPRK
# KCNQ2 pot baseline: also measured in KCNQ2 pot; calls as there; B-score; compound at 10 µM; measured here: initial fluorescence intensity artifact check;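 brightness before thallium and not channel activity; 0 = typical well and far values either way flag optical interference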
# * = called active by the depositor.
SMILES,KCNQ2 pot,KCNQ2 pot baseline
CCCCn1c(N(CCOC(C)=O)C(C)=O)nc2ccccc21,1.38,-2.83
Cc1ccc(-n2c([S-])c(C(=O)NC(C)c3ccccc3)[n+]3ccccc23)cc1 (stereo not given),0.3,-0.09
Nc1nc(SCC(=O)c2ccc(Br)s2)n[nH]1,0.17,0.72
CC(=O)Nc1ccc2c(c1)nc(CN1CCCC1)n2C,0.08,2.24
COc1ccc(N2CCN(c3nc4ccc(C)cn4c(=O)c3C=O)CC2)cc1,0.87,0.67
CCOC(=O)c1c(C)[nH]c(C(=O)CN2CCN(CC)CC2)c1C,0.15,-0.14
CCOc1ccc(NC2=C(Cl)C(=O)N(Cc3ccccc3)C2=O)cc1,0.03,-0.51
Cc1cccc(OCC(=O)Nc2ccc3c(c2)nc(CCN2CCC(C)CC2)n3C)c1,1.08,-0.34
Cc1cccc(C)c1Nc1nnc(SC/C(O)=C(\C#N)c2nc3ccccc3[nH]2)s1,0.2,-1.24
O=C(Cn1cnc2ccccc2c1=O)N1CCN(Cc2ccc3c(c2)OCO3)CC1,0.72,-0.01
CC(/C=C/c1ccccc1)=N\Nc1ccccc1[N+](=O)[O-],0.07,-1.83
Cc1ccc(S(=O)(=O)C2CCOC2=O)cc1 (stereo not given),0.55,3.82
COCCn1c(SCC(=O)Nc2ccc(Cl)cn2)nnc1-c1ccncc1,0.69,-0.25
Cc1ccc(C2CC(=O)N3CN(c4ccc(Br)cc4)CSC3=C2C#N)o1 (stereo not given),0.65,2.22
N#Cc1c(-c2ccc(Br)cc2)nc2n(c1=O)CCCS2,1.46,-1.34
CCC(=O)N(CCc1ccccc1C)Cc1cc2cc3c(cc2[nH]c1=O)OCO3,0.86,-1.49
CCNC(=O)N(C)c1nncnc1C(=O)NC,1.52,-1.07
COc1ccc(NC(=O)CN(C)C(=O)c2cc(S(=O)(=O)N(C)C)ccc2N2CCCC2)cc1,2.02,-0.6
Cc1ccc(C(=O)N/C(=C/c2ccc(Cl)cc2)C(=O)Nc2cccc(C(=O)O)c2)cc1,0.01,1.06
COc1ccc(NC(=O)CSc2ncccc2C(=O)OC(C)C)cc1OC,0.8,0.12
O=C(Cc1cccs1)N/N=C/C(Br)=C/c1ccccc1,0.96,-0.5
Cn1c(SCC(=O)Nc2ccc(Cl)cn2)nnc1C1CC1,1.59,0.01
O=C(CN1CCC(n2nnc3cc(C(F)(F)F)ccc32)CC1)Nc1ccc2c(c1)OCCO2,0.03,0.11
Cc1ccccc1NC(=O)C1CC(Cl)=CCC1C(=O)O (stereo not given),0.98,0.75
COCc1nnc(NC(=O)c2cccs2)s1,0.45,-1.68
# Following part
SMILES,KCNQ2 pot,KCNQ2 pot baseline
O=C(O)CCSc1nc2ccccc2s1,0.63,-0.04
COc1cccc(C2=N/C(=C\N(C)C)C(=O)O2)c1,0.03,0.1
N#CCCN(C1CCCCC1)S(=O)(=O)c1cccc2nsnc12,1.39,1.68
CCOC(=O)NC1(C(F)(F)F)NC(=O)N(c2cccc(C(F)(F)F)c2)C1=O (stereo not given),0.38,-1.76
CC#CCN1c2ccccc2[C@]23C[C@@H](C(=O)OC)N(C(=O)C4CCC4)C2=NC(C(=O)OC)=C(C(=O)OC)[C@H]13,0.23,-0.56
COc1cc(C(=O)OCC(=O)N2CC(C)OC(C)C2)cc(OC)c1OC (stereo not given),0.57,1.8
O=C(NCCC1=CCCCC1)c1cc(COc2ccc(F)cc2Cl)on1,0.63,-0.27
COc1ccc2cnn(-c3ccc(OC(F)(F)Cl)cc3)c(=O)c2c1OC,1.1,0.83
CC1(C)CC(=O)C2=C(C1)Nc1ncnn1C2c1cccs1 (stereo not given),0.85,1.92
NS(=O)(=O)c1ccc(Nc2c([N+](=O)[O-])cncc2[N+](=O)[O-])cc1,0.04,0.35
Cc1ccc(S(=O)(=O)N[C@@H](Cc2ccccc2)C(=O)N2CCC(C(=O)N[C@@H](CC(C)C)C(=O)O)CC2)cc1,0.01,1.5
CCN(CC)c1nc(-c2ccccc2)cc(C(F)(F)F)c1C#N,0.83,-0.91
COc1ccc(C(=O)c2c[nH]c(C(=O)NCc3cccs3)c2)cc1,1.47,-0.28
CCOC(=O)c1[nH]c2ccccc2c1NC(=O)c1ccc2c(c1)OCO2,0.05,1.74
CCc1nc(N2CCCCC2C(=O)O)c2oc3ccccc3c2n1 (stereo not given),1.44,-0.03
Cc1cc(C)cc(N(C(=O)c2ccc3c(c2)OCO3)C2C=CS(=O)(=O)C2)c1 (stereo not given),0.03,0.74
S=C(NCc1ccco1)N/N=C/c1ccc(Cl)cc1,1.29,0.6
COc1cc(/C=C/C(=O)OCC(=O)NC(=O)NC(C)C)ccc1O,2.45,-0.59
CC(C)[C@H](NC(=O)c1ccccc1Cl)C(=O)Nc1nc(-c2ccccn2)cs1,0.09,-2.34
CCCCNC(=O)CN(c1cccc(F)c1)S(C)(=O)=O,1.72,-0.68
O=C(O)CN1CCN(C(c2ccccc2)c2ccccc2)CC1,0.08,0.14
O=C(COc1ccc(Cl)cc1)NNC(=O)C(=O)NC1CCCCC1,2.61,0.03
COc1ccc(N/C=C(/C(C)=O)c2ccccc2)cc1,0.95,-0.04
Cc1c(C(=O)NCCN2CCOCC2)oc2ccc(S(=O)(=O)N3CCCCCC3)cc12,1.48,0.25
Cc1ccc(S(=O)(=O)NC(=O)COc2cc(C)ccc2C(C)C)cc1,0.2,0.17
# Further records:
SMILES,KCNQ2 pot,KCNQ2 pot baseline
Cc1ccc(CNC(=O)C(OC(=O)c2ccco2)C(C)C)cc1 (stereo not given),0.76,-1.09
CC(C)(C)c1nnc(NC(=O)Cc2ccccc2[N+](=O)[O-])s1,0.87,1.42
Cc1ccc(-n2c3c(c(=O)[nH]c2=S)C(C(F)(F)F)(C(F)(F)F)NC(=O)N3)cc1,1.38,-0.57
COc1ccc(N2CCN(C(=O)C3CCN(S(=O)(=O)c4c(C)noc4/C=C/N(C)C)CC3)CC2)cc1,0.14,0.75
O=C(Oc1cccnc1)c1cccc(Cl)c1,0.01,0.69
CCn1c(SCC(=O)N2CCN(c3ccc(F)cc3)CC2)nc2ccccc2c1=O,1.49,-0.72
COCCNC(=O)C(OC(=O)c1cccs1)c1ccccc1 (stereo not given),0.44,-2.61
CSCCC(NS(=O)(=O)c1ccccc1F)C(=O)NCc1cccnc1 (stereo not given),0.89,-0.87
COC(Cc1nnc(SC)n1-c1ccc(Cl)cc1)OC,0.58,1.7
Cc1csc(NC(=O)CCS(=O)(=O)c2ccc(Br)cc2)n1,0.6,-3.78
COc1cccc(NC(=O)CCSc2ccc3ccccc3n2)c1,0.81,-0.74
CCC(=O)N/N=C(\C)CC(=O)Nc1ccc2c(c1)OCCO2,0.19,-0.27
Cc1ccc(C(=O)COc2nc(C)nc3ccccc23)cc1,0.07,2.16
NC(N)=NCCCc1cn(CC(=O)N2CCNCC2)nn1,0.91,-0.27
O=C1CCC(C(=O)N2CCN(c3ccc(F)cc3)CC2)CN1CC1CCCCC1 (stereo not given),0.42,-0.33
CC(C)(C)NC(=O)C12CC3CC(CC(Cl)(C3)C1)C2,2.4,-1.87
C(=N\Nc1ccccc1)/c1ccc(N2CCOCC2)cc1,0.11,-1.33
Cc1ccc(-c2nnn(CC(=O)N(Cc3cccs3)C(C(=O)NC(C)(C)C)c3ccc(C)o3)n2)o1 (stereo not given),1.04,0.62
Cc1ccccc1-c1nnn(C/C(N)=N/O)n1,0.92,-0.45
COC(=O)c1cc(NC(=O)c2c(F)c(F)c(F)c(F)c2F)cc(C(=O)OC)c1,0.18,0.72
Nc1c(C(=O)Nc2ccc(S(=O)(=O)N3CCCC3)cc2)sc2nc3ccc(OC(F)(F)F)cc3cc12,0.96,-1.93
O=C(O)C1CCCCC1C(=O)NCc1cn2ccccc2n1 (stereo not given),0.96,-1.58
COc1cccc(CN(C(=O)c2ccco2)C2CCS(=O)(=O)C2)c1 (stereo not given),1.85,-1.42
O=C(N=Nc1c(O)[nH]c2ccccc12)c1ccc(CN2CCOCC2)cc1,2.31,0.03
COc1ccc(CNC(=O)c2cc3c(=O)[nH]c4ccccc4c3n2C)cc1,0.02,-0.05

# By substructure, the entries above with bromine.
SMILES,KCNQ2 pot,KCNQ2 pot baseline
Nc1nc(SCC(=O)c2ccc(Br)s2)n[nH]1,0.17,0.72
Cc1ccc(C2CC(=O)N3CN(c4ccc(Br)cc4)CSC3=C2C#N)o1 (stereo not given),0.65,2.22
N#Cc1c(-c2ccc(Br)cc2)nc2n(c1=O)CCCS2,1.46,-1.34
O=C(Cc1cccs1)N/N=C/C(Br)=C/c1ccccc1,0.96,-0.5
Cc1csc(NC(=O)CCS(=O)(=O)c2ccc(Br)cc2)n1,0.6,-3.78

# Going on with the list:
SMILES,KCNQ2 pot,KCNQ2 pot baseline
CC(=O)N1CCCc2cc(S(=O)(=O)N3CCCC3)ccc21,0.01,-1.1
Cc1nc(C(F)(F)F)ccc1C(=O)Nc1ccc2ccccc2n1,0.03,-3.22
Cc1nc(CN(C)C(=O)c2cc(COc3c(F)cccc3F)on2)cs1,0.12,3.12
O=C(Nc1ccc2c(c1)CCC2)Nc1ccc(F)cc1F,0.98,-1.89
Cc1noc(NC(=O)c2ccc(F)cc2)c1C#N,0.78,0.68
COc1ccc(C(=O)OCC(=O)NCCCc2ccccc2)cc1OC,0.6,2.53
CCN(CCCNC(=O)COc1cc(=O)n(CC)c2ccccc12)Cc1ccccc1,0.83,-0.22
Cc1ccccc1NC(=S)N(Cc1cccs1)C1CCCC1,1.06,-1.28
O=C(CCN1C(=O)c2ccccc2C1=O)OCN1C(=O)c2ccccc2C1=O,1.01,-1.39
COc1ccc(C(=O)Nc2nnc(S(=O)(=O)Cc3ccccc3)s2)cc1,0.04,1.05
CCCCn1c(N)c(N(CCOC)C(=O)c2ccc(NC3CC3)c([N+](=O)[O-])c2)c(=O)[nH]c1=O,0.37,-0.67
CCOc1cc(NC(=O)c2cccs2)c(OCC)cc1NC(=O)CCC(=O)NCC1CCCO1 (stereo not given),0.08,1.11
Cn1cc(CN2CCC(n3nccc3NC(=O)C3CCCC3)CC2)cn1,0.17,0.79
Cc1cc(C)c(C)c(OCCOCCN2CCN(C)CC2)c1,0.71,0.56
Nc1ccccc1Nc1cc(-c2ccccc2)nn1-c1ccccc1,0.02,-0.31
O=S(=O)(c1ccccc1)[C@@]1(c2ccccc2)C[C@@H]2ON=C(c3cccc(-c4ccccc4)c3)[C@@H]2C1,0.25,-0.87
CCC(=O)NC(=S)Nc1cccc(NC(=O)c2ccco2)c1,1.99,0.51
Cc1ccc(C)c(NC(=O)CS(=O)(=O)c2c[nH]c3ccccc23)c1,0.11,-0.86
O=C(Oc1ccc(OC(=O)C2CCC2)cc1)C1CCC1,2.29,0.12
Cc1ccccc1CNC(=O)C1CCC(=O)N(C2CC2)C1 (stereo not given),0.58,-0.84
COc1ccc(CNC(=S)Nc2ccccc2F)cc1,0.35,-0.89
Cc1ccc(NC(=O)CN2C(=O)S/C(=C\c3ccc(-c4cccc(C(=O)O)c4C)o3)C2=O)cc1,0.25,1.11
COc1ccccc1C(=O)Nc1ccc(-c2nnn(CC(=O)NCc3ccco3)n2)cc1,0.17,1.33
COc1ccc(NC(=O)CN2C(=O)COc3ccc(S(=O)(=O)N4CCOCC4)cc32)cc1,0.46,-0.34
O=C(CSc1ccc(-c2ccc(-n3cccn3)cc2)nn1)Nc1ccccc1F,2.69,-2.03

# Single records, from the list above.
# Entry for CCOc1cc(NC(=O)c2cccs2)c(OCC)cc1NC(=O)CCC(=O)NCC1CCCO1 (stereo not given) → KCNQ2 pot: 0.08; KCNQ2 pot baseline: 1.11
# Entry for Nc1ccccc1Nc1cc(-c2ccccc2)nn1-c1ccccc1 → KCNQ2 pot: 0.02; KCNQ2 pot baseline: -0.31

# Following part.
SMILES,KCNQ2 pot,KCNQ2 pot baseline
O=C(COC(=O)c1cccc(S(=O)(=O)N2CCN(c3ccc(F)cc3)CC2)c1)NCC1CCCO1 (stereo not given),0.36,-3.02
O=C(N/N=C/c1ccc(O)cc1O)c1ccc(NC(=O)C2CCCCC2)cc1,1.02,0.27
C1CNCCOCCNCCN1,1.86,-1.79
CCC1CCCCN1C(=O)CSc1nc2c(cnn2-c2ccc(C)cc2)c(=O)[nH]1 (stereo not given),0.39,1.21
COc1ccc(-n2nc(C(=O)NCC(=O)NCC3CCCO3)c3ccccc3c2=O)cc1 (stereo not given),0.38,-1.19
CCOc1ccc(N2C(=O)CC(N3CCN(c4ccccc4F)CC3)C2=O)cc1 (stereo not given),0.95,2.82
O=C(N/N=C/c1cnc(N2CCCCC2)s1)c1ccc(C(F)(F)F)cc1,0.67,0.85
Cc1nc(N[C@@H](Cc2ccccc2)C(=O)O)c2oc3ccccc3c2n1,0.84,-0.2
O=C(NCc1ccco1)C1CCCN(S(=O)(=O)c2cccc3cccnc23)C1 (stereo not given),0.64,0.49
CC(C)Oc1ccc(C(=O)NC(Cc2c[nH]c3ccccc23)C(=O)NN)cc1 (stereo not given),0.03,-0.68
O=C(O)c1ccc(Nc2nc(-c3ccccc3)nc3ccccc23)cc1,2.09,-1.32
COC(=O)CCCC(=O)NC(C)c1cnn(-c2ccccc2C)c1C (stereo not given),1.37,0.78
O=c1[nH]oc(O)c1-c1ncc(C(F)(F)F)cc1Cl,0.47,1.51
CCn1c2ccc(C)cc2c2nnc(SCCN3CCOCC3)nc21,0.16,-0.33
N=C1/C(=C/c2ccc(OCc3ccccc3F)cc2)C(=O)N=C2SC(CC(=O)N3CCOCC3)=NN12,0.15,1.78
CCC(=O)Nc1cccc(NC(=S)NC(=O)c2ccccc2Cl)c1,2.5,-0.62

# Reformatted with bars between the fields: entries from further up.
structure | KCNQ2 pot | KCNQ2 pot baseline
O=c1[nH]oc(O)c1-c1ncc(C(F)(F)F)cc1Cl | 0.47 | 1.51
CC(C)Oc1ccc(C(=O)NC(Cc2c[nH]c3ccccc23)C(=O)NN)cc1 (stereo not given) | 0.03 | -0.68
O=C(O)c1ccc(Nc2nc(-c3ccccc3)nc3ccccc23)cc1 | 2.09 | -1.32

# These rows are one share of the data. The share of hits here may be higher or lower than overall.
